Compound activity as filed in PubChem BioAssay.
CBX7 inh: CBX7 inhibition, primary AlphaScreen | AlphaScreen His6-CBX7 / biotin-H3K27me3 peptide binding; active compounds read low | normalised signal (fraction of DMSO) (test concentration not listed) | hit rate 1.1% among 66,000 | AID 1224903; in the data active = normalised signal below about 0.5;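 note: 100 nL library stock added to about 20 µL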
Target sequence (O95931 whole entry, looked up): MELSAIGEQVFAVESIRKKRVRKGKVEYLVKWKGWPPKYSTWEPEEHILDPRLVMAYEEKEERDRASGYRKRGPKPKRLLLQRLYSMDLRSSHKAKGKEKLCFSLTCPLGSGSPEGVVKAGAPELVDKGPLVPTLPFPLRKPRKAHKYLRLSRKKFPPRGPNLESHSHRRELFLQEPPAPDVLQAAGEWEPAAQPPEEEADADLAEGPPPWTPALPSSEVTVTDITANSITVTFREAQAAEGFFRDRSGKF
CBX7 inh z-score: second read-out of CBX7 inh, no call of its own (marks repeat the call); z-score; measured here: z-score of CBX7 signal; some inactives read as strong as hits; reference of the scale not given here;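 same signal on another scale; lower means less binding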
Active calls of the source: *; & = joins results of further samples. An excerpt (hit frequency here may not be typical).

SMILES	CBX7 inh	CBX7 inh z-score
COc1ccccc1/C=C/c1nc2ccccc2c(=O)n1-c1ccc(C)cc1	1.1	2.3
Cc1[nH]c2c(cc(C)c3[nH]c(=O)cc(C(F)(F)F)c32)c1C	1	1.5
O=C(C1CCN(c2nc3ccc(Br)cc3s2)CC1)N1CCC2(CC1)OCCO2	0.99	-0.35
CC1N=C(c2ccccc2)c2ccccc2N(CC(=O)N2CCCC2)C1=O (stereo not drawn)	0.87	-2.5
COc1ccc(OC)c(NC(=O)CN2C(=O)CN=C(c3ccccc3)c3ccccc32)c1	0.99	-0.26
C(#CCN1CCCCC1)COC/C=C/c1ccccc1	0.93	-1.3
COc1cccc(CN2CCN(Cc3ccccc3Br)CC2)c1	0.98	-0.42
CCOC(=O)c1c(C)n(Cc2ccccc2)c2ccc(OC(C)=O)cc12	1	0.15
O=c1c2ccccc2nc(/C=C/c2ccc(F)c(F)c2)n1-c1ccc(F)c(Cl)c1	0.97	-1.5
CCCCCOc1ccc(C2SCC(=O)Nc3c2c(=O)[nH]n3C2CCCCC2)cc1 (stereo not drawn)	0.98	-0.57
Cc1nc2cc(-c3ccccc3)nn2c(C)c1CCC(=O)N1CCC2(CC1)OCCO2	1	0.11
COc1cccc(/C=C/c2nc3ccccc3c(=O)n2-c2cccc(C)c2)c1OC	1	0.54
Cc1ccc(NC(=O)CN2C(=O)CN=C(c3ccccc3F)c3cc(Cl)ccc32)cc1C	0.89	-1.7
CCCCOc1ccc(C2SCC(=O)Nc3c2c(=O)[nH]n3C2CCCCC2)cc1 (stereo not drawn)	1.1	3.2
CCOC(=O)C1(c2ccccc2)CCN(CCC(=O)Nc2ccc(C)cc2)CC1	0.98	-0.45
CCCCCOc1ccc(C2SCC(=O)Nc3c2c(=O)[nH]n3C(C)C)cc1 (stereo not drawn)	0.99	-0.29
CC1N=C(c2ccccc2F)c2cc(Cl)ccc2N(Cc2cc(=O)n3ccccc3n2)C1=O (stereo not drawn)	1.1	2.3
Cc1ccccc1-n1c(/C=C/c2cccnc2)nc2ccccc2c1=O	1.1&0.94	1.2&-1.5
C=CCN(C(=O)CN1C(=O)C(C)N=C(c2ccccc2)c2cc(Cl)ccc21)c1ccccc1 (stereo not drawn)	0.92	-1.6
CCC(C)C1N=C(c2ccccc2Cl)c2cc(Cl)ccc2NC1=O (stereo not drawn)	1	0.18
O=C(Cn1ncc2c1-c1ccccc1OC2)N1CCC2(CC1)OCCO2	0.85	-1.9
C(#CC1(N2CCOCC2)CCCCC1)c1ccccc1	0.89	-0.24
CC(C(=O)Nc1ccc(Br)cc1C(=O)c1ccccc1)N1CCOCC1 (stereo not drawn)	0.98	-0.66
O=c1c2ccccc2nc(/C=C/c2cccc(F)c2)n1-c1ccc(F)cc1	1	1.6
CCOc1cc2c(cc1OCC)-n1cccc1C(c1ccccc1F)NC2 (stereo not drawn)	0.76	-3.8

One compound at a time, from the list above. Screens in order: CBX7 inh | CBX7 inh z-score
Results for CC1N=C(c2ccccc2F)c2cc(Cl)ccc2N(Cc2cc(=O)n3ccccc3n2)C1=O (stereo not drawn) → 1.1 | 2.3
Results for C=CCN(C(=O)CN1C(=O)C(C)N=C(c2ccccc2)c2cc(Cl)ccc21)c1ccccc1 (stereo not drawn) → 0.92 | -1.6
Results for CCCCOc1ccc(C2SCC(=O)Nc3c2c(=O)[nH]n3C2CCCCC2)cc1 (stereo not drawn) → 1.1 | 3.2

Following part:
SMILES	CBX7 inh	CBX7 inh z-score
Cc1nn(C)c2c1C(c1cccc(Cl)c1)SCC(=O)N2 (stereo not drawn)	0.91	-1.9
O=C(O)c1[nH]c2ccc(Cl)cc2c1CC(=O)N1CCN(Cc2ccccc2)CC1	1.1	1.6
COc1ccc(NC(=O)CN2C(=O)CN=C(c3ccccc3)c3cc(Cl)ccc32)cc1OC	1	0.054
CCOc1ccccc1NC(=O)C(CC)N1C(=O)CN=C(c2ccccc2)c2ccccc21 (stereo not drawn)	0.87	-2.5
Nc1nonc1Cc1nc(-c2nonc2N)n[nH]1	0.96	-1.5
Cc1nc2c(-c3ccccc3)c(C)nn2c(C)c1CCC(=O)N1CCC2(CC1)OCCO2	1.2	2
CCOC(=O)c1c(CN2CCC(C(=O)OCC)(c3ccccc3)CC2)n(C)c2cc(Br)c(OC)cc12	0.97	-0.32
O=C1CSC(c2ccc3c(c2)OCO3)c2c(-c3ccccc3)nn(-c3ccccc3)c2N1 (stereo not drawn)	0.83	-3.8
Cc1cc(C)cc(-n2c(/C=C\c3ccc(F)cc3)nc3ccccc3c2=O)c1	1	0.068
CC1N=C(c2ccccc2)c2ccccc2N(CCCOc2ccc(F)cc2)C1=O (stereo not drawn)	0.99	-0.66
Cc1ccc(-n2c(/C=C\c3ccccc3F)nc3ccccc3c2=O)cc1F	1	-0.17
CC(=O)OC1(c2ccccc2)CCN(C)C(C)C1C (stereo not drawn)	1.1	0.46
CCOC(=O)c1c(C)n(Cc2ccccc2)c2ccc(OCC(O)CNC(C)(C)C)cc12 (stereo not drawn)	1	0.5
CCOC(=O)C1(c2ccccc2)CCN(CCC(=O)Nc2ccc(OCC)cc2)CC1	1&0.94	0.65&-0.6
CCOC(=O)CN1C(=O)CN=C(c2ccccc2)c2cc(Cl)ccc21	0.84	-1.8
CC1N=C(c2ccccc2)c2ccccc2N(CC(=O)Nc2ccc(F)c(Cl)c2)C1=O (stereo not drawn)	0.86	-3.7
OCCN(CC#CC(O)(c1ccccc1)C1CCCC1)CCO (stereo not drawn)	0.98	-0.32
O=c1c2ccccc2nc(/C=C/c2cccnc2)n1-c1ccccc1	1	1
O=c1c2ccccc2nc(/C=C/c2ccccc2)n1-c1ccccc1	1.1	1.2
COc1ccc(F)c(CNCCc2c(C)[nH]c3ccc(OC)cc23)c1	0.37*	-0.62*
CCCCNC(=O)c1oc2ccc(S(=O)(=O)N3CC(C)CC(C)C3)cc2c1C (stereo not drawn)	0.88	-1.2
COc1ccc(NC(=O)CN2C(=O)C(C)N=C(c3ccccc3F)c3cc(Cl)ccc32)c(OC)c1 (stereo not drawn)	1	-0.016
Cc1oc(-c2ccccc2Cl)nc1CN1C(=O)CN=C(c2ccccc2)c2ccccc21	0.99	-0.66
COc1ccc(/C=C/c2nc3ccccc3c(=O)n2-c2ccccc2OC)cc1	1	1.1
COc1ccc(OCC(=O)Nc2ccc(Cl)cc2C(=O)c2ccccc2)cc1	1	0.21

Going on with the list:
SMILES	CBX7 inh	CBX7 inh z-score
CCC(=O)N1CC(=O)Nc2ccc(Br)cc2C1c1ccccc1 (stereo not drawn)	1.1	3.3
O=C(CN1C(=O)CN=C(c2ccccc2)c2ccccc21)Nc1ccc(F)c(Cl)c1	0.94	-1.2
Cc1ccccc1-n1c(/C=C/c2ccccc2F)nc2ccccc2c1=O	0.92	-1.9
CC[C@]12C=CCN3CCC4(c5cc(Br)c(OC)cc5N(C)C4[C@@](O)(C(=O)OC)[C@@H]1OC(C)=O)C32 (stereo partly drawn)	1	1.7
O=C(O)c1ccc2c(c1)N=C(Cl)c1ccccc1S2	1	0.55
Cc1ccc(-n2c(/C=C/c3ccccc3F)nc3ccccc3c2=O)cc1	1	0.59
COc1cc(Br)cc(C2SCC(=O)Nc3c2c(C)nn3C)c1 (stereo not drawn)	1.1	0.79
COc1ccc2[nH]c(C)c(CCNCc3ccc(OC)c(C)c3OC)c2c1	1	0.34
CN(C)c1ccc(C(=O)Nc2ccc(Cl)cc2C(=O)c2ccccc2)cc1	0.55	-2.1
Cn1c(C(=O)N2CCC(C(=O)N3CCC4(CC3)OCCO4)CC2)cc2sccc21	1	0.08
Cc1nn(-c2ccccc2)c2c1C(c1ccc(Br)cc1)SCC(=O)N2 (stereo not drawn)	0.98	-0.63
COc1ccc(OC)c(NC(=O)CN2C(=O)C(C)N=C(c3ccccc3)c3ccccc32)c1 (stereo not drawn)	0.9	-4.7
CC(C)Oc1ccc(C2SCC(=O)Nc3c2c(=O)[nH]n3C2CCCCC2)cc1 (stereo not drawn)	0.94	-1.4
O=C(N1CCN(C(c2ccccc2)c2ccccc2)CC1)C(O)(c1ccccc1)c1ccccc1	0.66	-4.6
Cc1cc(-n2c(/C=C/c3ccc(F)c(F)c3)nc3ccccc3c2=O)ccc1Br	1.2	1.6
COc1cccc(CN2CCN(Cc3ccccc3F)CC2)c1	0.81	-2.3
CCN1C[C@]2(COC)CC[C@H](OC)C34C5CC6[C@H](O)C5[C@](O)(C[C@@H]6OC)C(CC32)C14 (stereo partly drawn)	1.1	1.3
COc1ccc(NC(=O)CN2CC(c3ccccc3)CC2=O)cc1 (stereo not drawn)	1.1	1.1
CC(C)Oc1ccc(C2SCC(=O)Nc3c2c(=O)[nH]n3C(C)C)cc1 (stereo not drawn)	1	0.26
CSc1cccc(NC(=O)CN2C(=O)C(C)N=C(c3ccccc3)c3cc(Cl)ccc32)c1 (stereo not drawn)	0.81	-3.5
CC(=O)N1CC(=O)Nc2ccc(F)cc2C1c1ccc(F)cc1 (stereo not drawn)	1	0.58
Cc1cc(N2CCOCC2)nc2ccc(NC(=O)CCC(=O)N3CCC4(CC3)OCCO4)cc12	1	0.066
Cc1ccc(-n2c(/C=C/c3ccc(F)cc3)nc3ccccc3c2=O)cc1C	0.99	-0.24
CCOc1ccc(C(=O)Nc2ccc(Cl)cc2C(=O)c2ccccc2Cl)cc1	1	0.37
CCOc1cc2c(cc1OCC)-n1cccc1C(c1cccc(F)c1F)NC2 (stereo not drawn)	0.81	-6.9
O=c1[nH]c2ccccc2c(=O)n1-c1ccc(Cl)cc1	1	0.59
O=C(Nc1ccc(F)c(Cl)c1)C1c2ccccc2C(=O)N2CCCCC12 (stereo not drawn)	1	0.054
COc1ccc(OC)c(C2=NCC(=O)Nc3c2oc2ccc(Br)cc32)c1	0.76	-3.4
Cc1cc(OCC(=O)Nc2ccc(Cl)cc2C(=O)c2ccccc2)ccc1Cl	1.1	2.4

Structures listed so far that contain an NH in an aromatic ring:
SMILES	CBX7 inh	CBX7 inh z-score
Cc1[nH]c2c(cc(C)c3[nH]c(=O)cc(C(F)(F)F)c32)c1C	1	1.5
CCCCCOc1ccc(C2SCC(=O)Nc3c2c(=O)[nH]n3C2CCCCC2)cc1 (stereo not drawn)	0.98	-0.57
CCCCOc1ccc(C2SCC(=O)Nc3c2c(=O)[nH]n3C2CCCCC2)cc1 (stereo not drawn)	1.1	3.2
CCCCCOc1ccc(C2SCC(=O)Nc3c2c(=O)[nH]n3C(C)C)cc1 (stereo not drawn)	0.99	-0.29
O=C(O)c1[nH]c2ccc(Cl)cc2c1CC(=O)N1CCN(Cc2ccccc2)CC1	1.1	1.6
Nc1nonc1Cc1nc(-c2nonc2N)n[nH]1	0.96	-1.5
COc1ccc(F)c(CNCCc2c(C)[nH]c3ccc(OC)cc23)c1	0.37*	-0.62*
COc1ccc2[nH]c(C)c(CCNCc3ccc(OC)c(C)c3OC)c2c1	1	0.34
CC(C)Oc1ccc(C2SCC(=O)Nc3c2c(=O)[nH]n3C2CCCCC2)cc1 (stereo not drawn)	0.94	-1.4
CC(C)Oc1ccc(C2SCC(=O)Nc3c2c(=O)[nH]n3C(C)C)cc1 (stereo not drawn)	1	0.26
O=c1[nH]c2ccccc2c(=O)n1-c1ccc(Cl)cc1	1	0.59
